MbtI inh: MbtI salicylate synthase inhibition; inhibition, %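 (about 17 µg/mL by stock and volumes)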; 100,000 compounds, 0.89% hits; purified MbtI enzyme, fluorescence intensity read-out;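 active means above 50% in both replicates, above 80% if mildly self-fluorescent; inactive means the rest, strongly fluorescent compounds included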;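 further: 0% = mean of negative and 100% = mean of positive controls; one replicate is shown; some compounds called inactive have numbers as strong as hits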
Target sequence (P9WFX0 whole entry, looked up): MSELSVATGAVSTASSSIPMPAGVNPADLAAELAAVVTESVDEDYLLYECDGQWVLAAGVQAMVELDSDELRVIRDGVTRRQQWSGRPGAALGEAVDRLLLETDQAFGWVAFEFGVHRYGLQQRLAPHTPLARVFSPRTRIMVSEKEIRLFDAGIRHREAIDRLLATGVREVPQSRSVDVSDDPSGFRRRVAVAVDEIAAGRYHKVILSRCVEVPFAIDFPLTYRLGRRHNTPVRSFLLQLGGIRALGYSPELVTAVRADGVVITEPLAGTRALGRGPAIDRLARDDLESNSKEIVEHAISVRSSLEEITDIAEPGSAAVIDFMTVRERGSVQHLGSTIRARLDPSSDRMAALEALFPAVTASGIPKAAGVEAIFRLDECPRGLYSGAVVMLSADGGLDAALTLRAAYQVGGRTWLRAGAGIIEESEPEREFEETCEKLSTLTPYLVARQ
Mtb MenB inh: blocks the Mycobacterium tuberculosis MenB enzyme; MenB enzyme assay, absorbance read-out; some hits fall short of the stated cut; 100,000 compounds, 0.43% hits; AID 540299; P9WNP5; inhibition, %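 (about 12 µg/mL by stock and volumes)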;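 active means mean of two replicates above 30%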;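 further: 0% = no compound and 100% = wells with inactive enzyme; the first replicate is given; strong numbers were not always called active; inactives centre near -10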
PV pol inh: inhibitors of poliovirus RNA polymerase binding and polymerization; poliovirus polymerase elongation, fluorescence polarization; active compounds read low; P03300; 150,000 compounds, 0.66% hits; % elongation, % (compound at 16.7 µg/mL); in the data active means % elongation below about 90%; further: some results filed as inactive read as strong as hits
Target sequence (P03300 1749-2209 limits assumed): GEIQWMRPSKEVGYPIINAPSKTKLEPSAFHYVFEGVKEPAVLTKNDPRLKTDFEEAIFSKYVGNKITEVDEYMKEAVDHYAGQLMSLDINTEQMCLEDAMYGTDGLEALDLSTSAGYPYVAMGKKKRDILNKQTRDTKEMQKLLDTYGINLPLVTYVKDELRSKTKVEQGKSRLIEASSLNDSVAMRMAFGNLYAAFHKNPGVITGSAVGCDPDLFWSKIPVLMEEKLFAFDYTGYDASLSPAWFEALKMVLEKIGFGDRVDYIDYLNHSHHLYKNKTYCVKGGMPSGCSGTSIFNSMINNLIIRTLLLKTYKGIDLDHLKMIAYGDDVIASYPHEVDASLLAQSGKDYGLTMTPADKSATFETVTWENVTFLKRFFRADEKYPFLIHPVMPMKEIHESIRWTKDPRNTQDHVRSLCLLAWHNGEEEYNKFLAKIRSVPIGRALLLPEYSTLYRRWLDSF
PV pol inh intensity: also measured in PV pol inh; calls as there; % elongation; measured here: total intensity read-out; formula for this scale not given here;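 total fluorescence in place of polarization; lower means less elongation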
* hit, by the source's call; · = not tested or not shown. An unsorted share of the library; 1.8% or so of the library scored in one or more.

Below each SMILES – PV pol inh intensity	PV pol inh	Mtb MenB inh	MbtI inh
CCN(CC)Cc1c(O)ccc2occ(C(=O)c3ccccc3)c12
  103	98	-8	-2
CC(=O)N1CN(Cc2cccnc2)Cc2c1sc1c2CCCC1
  96	98	-10	21
Cc1ccc2oc(=O)c3cc(C(=O)Nc4ccc5c(C)cc(=O)oc5c4)sc3c2c1
  110	104	-32	79
COc1ccc(C(=O)Nc2sc3c(c2C(=O)NCc2ccco2)CCCC3)cc1OC
  103	102	-12	189
CCOc1ccc(NC(=S)N2CC(O)CC2C(N)=O)cc1 (stereo not drawn)
  106	103	2	13
Clc1ccc(-c2nn(-c3ccccc3)cc2C=NCc2ccco2)cc1
  109	106	-2	-24
O=C1C2C3C=CC(C3)C2C(=O)N1c1ccc(Cl)cc1 (stereo not drawn)
  102	100	1	-11
N/C(=N\O)c1ccsc1
  108	105	19	-13
COC(=O)/C(=C/c1ccc(OC(F)(F)F)cc1)NC(=O)c1ccccc1
  106	105	·	-5
COC(CNC(=O)CN1C(=O)/C(=C/c2ccccc2F)Oc2ccccc21)OC
  99	100	16	16
CCCNC(=O)C(C)N (stereo not drawn)
  106	102	-28	-2
N#CC1=C(N)OC2=C(C(=O)CCC2)C1c1ccoc1 (stereo not drawn)
  103	100	15	-10
CC(C)COc1ccc(CC(C#N)C(=O)O)cc1Cl (stereo not drawn)
  104	99	-20	-15
Nc1c(C(=O)Nc2ccccc2C(F)(F)F)sc2[nH]c(=O)c(C(=O)O)cc12
  101	99	-20	6
O=c1[nH]nc(SCc2csc(-c3ccccc3)n2)n1Cc1ccccc1
  109	104	-13	0
CCC(C)NC(=O)/C=C1\Sc2ccccc2NC1=O (stereo not drawn)
  98	100	-52	16
NCCCOCC1CCCO1 (stereo not drawn)
  108	105	-1	-11
COc1ccc(CCN2C(=O)c3ccccc3NC2c2c(C)nn(C)c2C)cc1 (stereo not drawn)
  117	109	-14	110
CCCCCC(=O)NC1(CCC)CCCC1
  102	100	-24	-10
O=C(CSCc1cc(=O)n2c3c(sc2n1)CCCC3)NCc1ccc2c(c1)OCO2
  124	110	-8	-5

Of the compounds above, these have a Cl atom.
Below each SMILES – PV pol inh intensity	PV pol inh	Mtb MenB inh	MbtI inh
Clc1ccc(-c2nn(-c3ccccc3)cc2C=NCc2ccco2)cc1
  109	106	-2	-24
O=C1C2C3C=CC(C3)C2C(=O)N1c1ccc(Cl)cc1 (stereo not drawn)
  102	100	1	-11
CC(C)COc1ccc(CC(C#N)C(=O)O)cc1Cl (stereo not drawn)
  104	99	-20	-15

The listing picks up, starting 4 compounds before the break.
Below each SMILES – PV pol inh intensity	PV pol inh	Mtb MenB inh	MbtI inh
NCCCOCC1CCCO1 (stereo not drawn)
  108	105	-1	-11
COc1ccc(CCN2C(=O)c3ccccc3NC2c2c(C)nn(C)c2C)cc1 (stereo not drawn)
  117	109	-14	110
CCCCCC(=O)NC1(CCC)CCCC1
  102	100	-24	-10
O=C(CSCc1cc(=O)n2c3c(sc2n1)CCCC3)NCc1ccc2c(c1)OCO2
  124	110	-8	-5
N#C/C(=C\c1ccc(N2CCCC2)o1)c1ccccc1
  194	76	-61	51
Cc1nn(-c2ccccc2)c2[nH]c(=O)c(CNc3ccccc3)cc12
  97	99	-20	6
Cc1ccc(N=Cc2c(O)c3ccccc3n(C)c2=O)cc1
  107	102	-30	-6
Cc1nn(-c2ccccc2)c2sc(C(=O)NCCN3C(=O)S/C(=C\c4cccnc4)C3=O)cc12
  97	102	-36	-7
CC1CC(C)CN(c2cc(NCCO)c3c4c(onc24)-c2ccccc2C3=O)C1 (stereo not drawn)
  197	75	-24	4
CCCN(CCC)C1=C(C(=O)c2ccccc2)N(C)S(=O)(=O)c2ccccc21
  108	104	-71	0
C[C@@]12CCC3[C@@](CC[C@@H]4[C@](C)(C(=O)O)CCC[C@@]34C)(C[C@H]1O)C2 (stereo partly drawn)
  102	102	-14	-6
O=C(O)c1cccnc1N1CCOCC1
  103	101	-18	-7
CCOc1nc(C)nc2c1sc(=S)n2C
  109	106	1	·
COc1ccc(-c2noc(COc3cc(C)c(Cl)c(C)c3)n2)cc1OC
  104	99	-9	-3
C=C(C)c1cccc(C(C)(C)NC(=O)NC2CC2)c1
  101	105	-11	4
O=S(=O)(/N=C(/Nc1cccc(O)c1)c1ccccc1)c1ccccc1
  101	103	-26	-7
CC(C)(C)Sc1cc(C(=O)O)sc1C(=O)O
  103	101	-34	-13
CCc1ccc(NC(=O)Cn2ncc3ccccc32)cc1
  104	105	-4	2
O=C(CSc1nc2ccccc2[nH]1)c1cccs1
  100	100	-10	12
CCOc1ccc(NC(=O)c2cn(CC(C)C)c(=O)c3c2c2ccccc2n3C)cc1
  105	102	-18	14
Cc1[nH]c(=S)c(C#N)c(-c2ccco2)c1C(=O)O
  146	144	-85	76
O=C(O)/C=C/C(=O)NCc1ccccc1
  95	101	1	·
COC(=O)c1ccc(COC(=O)c2ccc3c(c2)OCO3)o1
  103	100	0	-3
Cc1onc(-c2ccccc2Cl)c1C(=O)NCCOC12CC3CC(CC(C3)C1)C2
  102	105	-13	·
COC(=O)c1c(C(=O)OC)c2ccncn2c1Cl
  109	107	-13	·
O=C(/C=[N+](\[O-])C1CCC/C1=N\O)c1ccccc1 (stereo not drawn)
  128	104	-6	-9
COc1ccc(OCCN(C)C(=O)/C=C/c2nc3ccccc3o2)cc1
  112	104	-4	10
COc1ccc(N=Cc2c(O)[nH]c(=S)[nH]c2=O)cc1
  107	99	-87	-14
N#CCCSc1nc2ccccc2n1CCc1ccccc1
  110	104	-11	-23
CC(=O)N1CCN(S(=O)(=O)c2ccc(C)cc2)C1c1ccc(N(C)C)cc1 (stereo not drawn)
  104	99	-9	-7
Cc1cc(OCCN2CCCC2)cc(C)c1Cl
  106	100	-3	11
CCN1CCN(C(=O)Cc2cccc3ccccc23)CC1
  106	103	·	-2
Nc1cc(Cl)ccc1Sc1ccccc1
  104	103	·	-6
CCOC(=O)c1c(-c2cccs2)csc1NC(=O)C(F)(F)F
  100	98	14	4
CCOC(=O)c1cc2c(N(C)C)nccc2nc1C(F)(F)F
  100	99	10	10
Cc1ccc(CCCOC(=O)CN2CCOCC2)cc1
  101	103	·	-8
CCCCc1ccc(N2C(=O)C=CC2=O)cc1
  105	101	·	98*
CCCCn1nc(C)c(/C=N/NC(=O)CN2CCCc3ccccc32)c1Cl
  111	100	-42	-5
Cc1ccc2c(Cn3nnc4ccccc4c3=O)cc(=O)oc2c1
  121	112	-1	1
O=C(Nc1cccc2c1CCCC2)N1CCC(CN2CCCCC2)CC1
  100	100	-7	1
COc1ccccc1OC(=O)C1CCCCC1
  102	104	-1	-7
CC1(C)CC(=O)C2=C(C1)Nc1[nH]c(=S)[nH]c(=O)c1C2c1ccc(O)cc1 (stereo not drawn)
  99	101	8	98
CCN(CC)C(=O)c1ccccc1OC
  104	101	0	-4
Cc1ccc(CN2CC(C(=O)NCC(=O)OCc3ccccc3)CC2=O)cc1 (stereo not drawn)
  99	107	-16	-7
Cc1ccc(C2N(Cc3ccccc3)CCCN2Cc2ccccc2)o1
  100	98	-18	-10
CN1C(=O)CS/C1=C\C(=O)C(C)(C)C
  110	106	-53	21
CCCC1Cc2[nH]c(=O)c(C(=O)O)cc2CO1 (stereo not drawn)
  99	100	-11	28
COC(=O)c1cc(OC)c(OC)cc1NC(=O)CSc1nnnn1-c1ccccc1OC
  98	101	-2	44
NC(N)=NOCC[C@@H](N)C(=O)O
  100	100	2	-16
O=C(O)CCc1cnn(-c2ccccc2)c1
  110	103	3	-8
Cc1ccc2c(c1)c(=O)c1c3n2CCN(CC#N)C3CC1 (stereo not drawn)
  97	98	1	·
c1ccc(-c2nc(-c3cccnc3)no2)cc1
  103	102	28	-5
CNc1c(NS(=O)(=O)c2ccc(C)cc2C)c(=O)oc2ccccc12
  109	105	-7	3
NC(=O)c1ccc[n+](CC(=O)N2CCCCC2)c1
  105	101	-30	2

New compounds follow
Below each SMILES – PV pol inh intensity	PV pol inh	Mtb MenB inh	MbtI inh
Cc1ccc(C(=O)NCCc2cn3ccccc3n2)cc1
  101	100	9	60
O=P(OCC1CC1)(c1ccccc1)c1ccccc1
  103	101	-32	-10
CC(=C(C#N)C#N)c1ccc2c(c1)OCO2
  101	98	-29	-14
Cc1c(CCC(=O)NN)c(C)n2c(nc3ccccc32)c1C#N
  93	97	-7	·
CCc1ccc(NC(=O)CSc2nc3ccccc3c(=O)n2CCCN2CCC(C)CC2)cc1
  96	103	-27	-8
N#Cc1c(N2CCN(C=O)CC2)nc(N)c2c(N)nc3c(c12)CC(=O)N3Cc1cccs1
  99	104	11	-8
O=C(NC1CCCCCC1)c1cccc(-n2cnnc2)c1
  104	103	-20	-11
CN(C)S(=O)(=O)c1ccc(C(=O)NCc2nc3ccccc3n2C)cc1
  102	103	-19	13
COc1ccc(OCc2nnco2)cc1
  104	102	-25	-9
CC1=C(C)C(=O)C(C)=C(C)C1=O
  100	100	1	48
COC(=O)c1cc(OC)c(OC)cc1NC(=O)C(C)C
  105	102	-23	63
CC(C)COc1ccc2c(c1)c1c3c([n+](C)ccn32)CCC1
  107	91	-37	-36
C=CCN=c1scc(-c2ccccc2)n1/N=C/c1ccc(O)cc1O
  112	115	-55	-3
O=c1nc(Nc2ccccc2)cn[nH]1
  107	104	-14	7
O=C1CCC(C(=O)OCC(=O)C23CC4CC(CC(C4)C2)C3)N1 (stereo not drawn)
  107	101	·	-4
COC(=O)c1c(C)[nH]c(C(=O)C(C)Sc2nnc(-c3ccccc3)o2)c1C (stereo not drawn)
  108	105	-20	-1
CC(C)(C)N(Cc1ccccc1)C(=O)CSc1nncs1
  105	99	-18	16
Cc1ccc(N/C=C2/Cn3cccc3C2=O)cc1
  103	95	-92	-21
O=C(CCc1cn(Cc2ccccc2)c2ccccc12)NCCc1ccc(Cl)cc1
  100	104	-15	-2
COc1ccccc1OC(C)C(=O)N1CCN(C/C=C/c2ccccc2)CC1 (stereo not drawn)
  101	98	-16	-5
COc1ccccc1C(=O)Nc1cc2[nH]c(=O)[nH]c2cc1C
  108	97	2	2
COc1ccc(OCCOC(=O)c2ccc(SC)cc2OC)cc1
  97	103	-23	8
O=C(O)c1nn(Cc2coc(-c3cccs3)n2)c(=O)c2ccccc12
  109	100	-22	-21
NC(=O)C1CCN(C(=O)Cn2ncc3c4ccccc4n(Cc4ccc(F)cc4)c3c2=O)CC1
  107	104	-1	45
O=S(=O)(NC1CC1)c1ccc(F)cc1
  105	107	9	-1
O=C(CCC1COc2ccccc2O1)NC1CCCCC1 (stereo not drawn)
  100	103	7	-1
O=C(OCC(=O)N1CCCC1)c1cc(Cl)ccc1Cl
  97	104	-44	2
Cn1c(=NC(=O)C2=NN(C3CCS(=O)(=O)C3)C(=O)CC2)sc2ccccc21 (stereo not drawn)
  100	97	-2	27
COC(=O)c1ccc(OC(=O)c2ccc(Br)o2)cc1
  101	103	-13	-13
CCOC(=O)c1sc(N)c(C(=O)OCC)c1COC(=O)c1cnc(C)cn1
  99	107	-23	-2
COc1ccc(CNC(=O)CCc2nnc3ccc(NCCCN4CCCC4=O)nn23)cc1
  99	100	-4	19
CCn1cc(C(=O)NC(=S)Nc2sc3c(c2C(=O)OC)CCCCCC3)cn1
  102	99	-24	-1
CC(C)(C)C(=O)NC(C(=O)O)C12CC3CC(CC(C3)C1)C2 (stereo not drawn)
  111	106	4	-14
COC(=O)c1ccc(NC(=O)CC2Sc3ccc(C(F)(F)F)cc3NC2=O)cc1 (stereo not drawn)
  102	103	-13	-16
Cc1nnc(NC(=O)c2nc3nccc(C)n3n2)o1
  104	101	3	8
N#CCCO/N=C/c1ccco1
  95	100	-9	24
CCOC(=O)Cc1csc(NC(=O)C(C)(C)C)n1
  103	102	-12	-2
CN1/C(=C2\C=NN(C)P2(=O)N2CCCCCC2)C(C)(C)c2ccccc21 (stereo not drawn)
  108	103	-43	4
CNCc1nnc(-c2ccccc2)o1
  102	100	17	2
O=C(Cn1cnc2ccccc2c1=O)Nc1ccccc1C(=O)NCc1ccc2c(c1)OCO2
  93	101	-30	-6
CC(C)(C)c1ccc(-c2nnc(-c3ccccc3NC(=O)/C=C\C(=O)O)o2)cc1
  109	104	-1	5
O=C(CN1CCC(N2CCCCC2)CC1)c1ccc(F)cc1
  98	100	-51	0
CC(C)C(C)(N)C#N (stereo not drawn)
  107	104	-3	-8
CCn1c(-c2ccc(C(C)(C)C)cc2)n[nH]c1=S
  102	102	-37	-61
O=C(OCCS(=O)(=O)c1ccc(C(F)(F)F)cn1)c1ccc(Cl)c(Cl)c1
  91	105	-15	1
COC(=O)CNc1nc(C2CC2)nc2c1nnn2Cc1ccccc1Cl
  99	101	-42	-5
CC(=O)N/N=C(/c1ccccc1)C(O)c1ccccc1 (stereo not drawn)
  102	100	-50	-16
COC(=O)c1cc(S(=O)(=O)NCC2CCN(Cc3ccc(Cl)cc3)CC2)cn1C
  101	100	-5	-2
c1ccc(CN2CCCN(Cc3ccccc3)C2c2cccs2)cc1
  100	103	3	-3
